High-throughput results: PubChem BioAssay, National Center for Advancing Translational Sciences (NCATS)
Rango complex inh – Rango-importin beta binding inhibition. Q14974. Rango CFP/YFP FRET sensor + importin beta, 45 min. Potency, µM (series often up to 92.2 µM), for inactives: top-dose inhibition of complex formation. hit rate 0.031% among 340,000; active = rising FRET ratio curve, often small or poorly fitted; inconclusive = mostly compound fluorescence or quenching in the first reads; inactive = flat curves in all reads;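 also: potency is read from the fitted curve at half-maximal effect; 0% = DMSO wells and 100% = buffer wells lacking importin beta; nearly all actives have a fitted effect of over 15% in size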
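FRET biosensor Rango (snurportin 1 IBB between N-terminal EYFP and C-terminal Cerulean), 50 nM in PBS/1 mM DTT/0.02% Tween-20/0.1% BSA, preincubated 5 min RT with compound; 0.125 microM importin beta added, 45 min RT, CFP/YFP FRET ratio read.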
miR-21 FLuc – miR-21 reporter, rising signal | AID 2288 | Potency, µM (highest dose often 38.3 µM), for inactives: at the top dose reporter change, positive = more light | 340,000 tested, under 10 active | HeLa miR-21 FLuc reporter, luciferase, 48 h; active = well fitted rising curve with a large enough effect; inconclusive = small, poorly fitted or top-dose-only effect; inactive = no such curve, though single readings can be large or run the other way;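 also: % of control where 0% means no effect; miR-21 action dims this reporter so a rising signal means less miR-21 action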
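Luminescence from a firefly luciferase reporter carrying a miR-21 binding site downstream, stably expressed under a CMV promoter in HeLa cells that make miR-21 endogenously, reports miRNA modulation after 48 h compound exposure up to approximately 40uM final.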
GLA inh pH 4.5 – blocks human alpha-galactosidase A at pH 4.5; P06280; purified enzyme, 4-MU-alpha-Gal fluorescence, pH 4.5; activity change, negative = inhibition, % at 105 µM; 230,000 tested, under 10 active; AID 1467; inconclusive = small, poorly fitted or top-dose-only inhibition, or a rising curve; inactive = flat fitted curve, though single readings scatter; no compound was filed as active;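 also: 0% = full activity with enzyme and -100% = basal without enzyme; dose as in the result columns while the protocol names 77 µM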
Target sequence (P06280 whole entry, looked up): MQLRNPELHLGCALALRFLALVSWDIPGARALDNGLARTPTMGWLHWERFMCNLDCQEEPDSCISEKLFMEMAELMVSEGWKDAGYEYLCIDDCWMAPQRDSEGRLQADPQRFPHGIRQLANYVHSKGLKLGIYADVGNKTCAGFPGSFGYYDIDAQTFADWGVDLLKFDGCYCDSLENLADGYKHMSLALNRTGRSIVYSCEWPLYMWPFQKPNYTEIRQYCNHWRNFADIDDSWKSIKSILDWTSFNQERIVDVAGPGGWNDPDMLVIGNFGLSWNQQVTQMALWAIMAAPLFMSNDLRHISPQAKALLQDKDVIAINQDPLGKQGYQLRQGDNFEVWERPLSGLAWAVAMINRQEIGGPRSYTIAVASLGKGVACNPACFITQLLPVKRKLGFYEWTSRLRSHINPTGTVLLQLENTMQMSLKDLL
Rango release inh – inhibition of RanGTP-driven Rango-importin beta dissociation; O95149+P62826; Biochemical FRET Rango-importin beta, RanGTP-induced dissociation; Potency, µM (doses to about 46.1 µM), inactives show at the top dose activity change, negative = inhibition; hit rate 0.071% among 340,000; AID 540253; active means falling FRET ratio curve, often poorly fitted, with flat reads before Ran was added; inconclusive means other falling curves, or compound fluorescence or quenching; inactive means flat or rising ratio curve;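 also: potency is read from the fitted curve at half-maximal effect; % of control where 0% means no effect; nearly all actives have a fitted effect of over 45% in size; -100% = wells without RanGTP and RCC1; the record marks most hits as doubtful in a second field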
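Rango (0.1 uM)–importin beta (0.25 uM) complex; RanGTP-RCC1 trigger; 45 min RT; CFP/YFP FRET read.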
Starred values were filed as active, the others as inactive; ? = inconclusive; / = not tested or not shown; & = joins results of further samples; [ ] = remark or other dose. Some of the compounds tested; the hit share may differ from the screen's.

SMILES	Rango complex inh	miR-21 FLuc	GLA inh pH 4.5	Rango release inh
Cc1cc(C)cc(NC(=S)N(C)C)c1	0.2%	-11%	-5	0%
O=c1c2ccccc2c(C=Nc2ccc(O)cc2)c(O)n1-c1nccs1	?	0%	-11	?
COCc1cc(C)nc(SCC(=O)Oc2ccc(Cl)cc2)c1C#N	?	-20%	1[21.1 µM]	9.2µM*
COc1cccc(NC(=O)CNC(=O)c2ccc(C)cc2)c1	-0.8%	-6%	1	-4%
O=[N+]([O-])c1ccc(/C=N/N2CCN(Cc3ccccc3)CC2)cc1	2.1%	-2%	/	-5%
COc1ccc(N2CCN(C(CNC(=O)C3CCCCC3)c3ccco3)CC2)cc1 (centres undefined)	1.4%	/	/	11%
Cc1ccc(CNC(=O)CCSCc2ccc(C)cc2)cc1	-2.9%	-5%	/	1%
CC1=CC(C)(C)Nc2cc(C)c(C)cc21	-0.1%	-3%	17	-8%
CC(OC(=O)c1cccnc1Cl)C(=O)Nc1ccc2c(c1)OCO2 (centres undefined)	4.1%	/	/	-13%
COc1cc2c(c(OC)c1OC)-c1ccc(NC(=O)c3ccc(F)cc3)c(=O)cc1[C@@H](NC(C)=O)CC2	?	?	/	-23%
COCc1c(C(=O)Nc2ccc3nc(N4CCOCC4)sc3c2)oc2ccccc12	?	/	/	-5%
CCn1c(=O)n(CC)c2cc(S(=O)(=O)N3CCOCC3)ccc21	5.0%	-7%	0	?
CCCCCCCCCCCn1nnnc1N	-2.4%	/	/	6%
COc1ccccc1NC(=O)CSc1nnnn1C1CCCCC1	-3.3%	-9%	/	2%
O=C(NCc1cccc(Br)c1)c1cc(-c2ccccc2)nn1CC1CC(c2cccnc2)=NO1 (centres undefined)	-3.9%	/	/	8%
COCCCNc1nc2nonc2nc1N1CCN(C2CCCC2)CC1	0.6%	-6%	1	4%
C=CCOc1ccc(Br)cc1/C=C1\NC(=S)N(C(C)=O)C1=O	?	0%	/	16%
COc1cc2c(cc1OC)CN(C(=O)c1cccc(S(=O)(=O)N(C)C)c1)CC2	-3.7%	0%	-23	-9%
CCOc1ccccc1C(=O)NC1CCN(Cc2ccccc2)CC1	-2.3%	-6%	/	-5%
CCOC(=O)c1ccc(NC2c3ncccc3C(=O)N2Cc2ccc(F)cc2)cc1 (centres undefined)	0.6%	-4%	-10	-3%
CCCC(C)NC(=O)Cn1c(=O)c2c(ncn2CCC(C)C)n(Cc2ccccc2)c1=O (centres undefined)	2.6%	0%	/	15%
COc1ccc(C)cc1S(=O)(=O)N(C)CC(=O)N1CCCC1	0.8%	0%	/	-6%
CCN(CCCNC(=O)C1CCN(S(=O)(=O)c2cnc[nH]2)CC1)c1ccccc1	2.6%	-6%	-9	9%
CCOc1ccc(N(C(=O)c2snc(C(N)=O)c2N)C(C(=O)NCC2CCCO2)c2ccco2)cc1 (centres undefined)	1.2%	1%	/	1%
CCNS(=O)(=O)c1cc(-c2nnc(OC)c3ccccc23)ccc1C	0.9%	-3%	/	-2%

The list goes on (2 carried over from the part before).
SMILES	Rango complex inh	miR-21 FLuc	GLA inh pH 4.5	Rango release inh
CCOc1ccc(N(C(=O)c2snc(C(N)=O)c2N)C(C(=O)NCC2CCCO2)c2ccco2)cc1 (centres undefined)	1.2%	1%	/	1%
CCNS(=O)(=O)c1cc(-c2nnc(OC)c3ccccc23)ccc1C	0.9%	-3%	/	-2%
CCOC(=O)C1CCCCN1C(=O)c1oc2c(Cl)cc(C)cc2c1C (centres undefined)	-1.3%	-19%	/	-18%
Cc1ccc(SC(CC(=O)c2ccc(C)cc2)C(=O)O)cc1 (centres undefined)	1.6%	2%	-2	8%
COC(=O)c1cc(S(=O)(=O)N2CCC(C)CC2)ccc1F	2.0%	-6%	0	0%
O=C(O)COc1ccc2c(c1)OCCO2	?	-4%	0	22%
O=C(CSc1ccc2nnc(CCNC(=O)c3ccc(F)cc3)n2n1)NCC1CCCO1 (centres undefined)	2.0%	-1%	/	5%
CS(=O)(=O)N1CCc2cc(S(=O)(=O)Nc3ccc4c(c3)OCCO4)ccc21	-1.0%	16%	1	13%
O=C(C(c1ccccc1)c1ccccc1)N1CC[C@@]2(O)CCCC[C@H]2C1	1.0%	-4%	-15	1%
CCOC(=O)CCC(=O)Nc1ccc(S(=O)(=O)N2CCc3ccccc32)cc1	-0.7%	2%	/	-26%
Cc1csc(C(=O)O)c1NC(=O)c1ccc(F)cc1	-0.9%	0%	/	-5%
COc1ccc(CCN(C)S(=O)(=O)c2cn(C)c(=O)n(C)c2=O)cc1OC	1.3%	/	/	8%
c1ccc2[nH]c(SN3CCOCC3)nc2c1	/	-6%	-3	/
CCOc1ccc(OCC)c(NC(=O)C2C3C=CC(O3)C2C(=O)NCc2ccco2)c1 (centres undefined)	-4.3%	-14%	-12	-3%
Cc1ccc(F)c(NC(=O)c2cncn2-c2ccccc2)c1	?	0%	/	-4%
CCCN(CCC)c1nc(N(CCC)CCC)[nH]c(=O)n1	-5.1%	-1%	1	1%
COCCn1nnnc1C(c1ccc(Cl)cc1)N1CCN(C(=O)c2ccco2)CC1 (centres undefined)	-1.8%	1%	/	14%
COc1ccc(-n2c(CNC(=O)COc3ccc(Cl)cc3)n[nH]c2=S)cc1	3.0%	-1%	-2	1%
CCC(C)NC(=O)C(NS(=O)(=O)c1ccc2c(c1)c(=O)n(C)c(=O)n2C)c1ccccc1 (centres undefined)	2.7%	-4%	2	-2%
CCN(c1ccccc1)S(=O)(=O)c1cccc(C(=O)NCC(c2cccs2)N(C)C)c1 (centres undefined)	?	1%	-15	6%
Cc1c(NC(=O)CN2C(=O)NC3(CCCC3)C2=O)c(=O)n(-c2ccccc2)n1C	-6.4%	5%	-1	2%
Cc1cc(C)c(S(=O)(=O)N2CCN(C(=O)C3CC3)CC2)c(C)c1	-0.9%	/	/	11%
CCN(CC)S(=O)(=O)c1cccc(-c2n[nH]c(=S)n2C)c1	0.1%	-10%	2	14%
COC(=O)CCCC1=CC2=C(c3ccccc3)C(=O)C(C)(OC(=O)C3CCCC3)C(=O)C2=CN1CCCCO (centres undefined)	?	3%	6&-12	-26%
Nc1ccn(CC(=O)NCc2ccccn2)c(=O)n1	0.2%	/	/	-7%
COc1ccc(CNC(=O)C2CCC(=O)N(CC3CCCCC3)C2)cc1 (centres undefined)	-3.7%	1%	/	-10%
CC1=CC(c2ccccc2)n2nc(NS(=O)(=O)c3ccc(C)cc3)nc2N1 (centres undefined)	?	-11%	-4	?
Continuation:
SMILES	Rango complex inh	miR-21 FLuc	GLA inh pH 4.5	Rango release inh
CC(=O)Nc1ccccc1S(=O)(=O)CC1CC1(Cl)Cl (centres undefined)	-0.4%	-2%	/	0%
CC(C(=O)N1CCN(C)CC1)N1C(=O)c2ccccc2C1=O (centres undefined)	1.5%	-8%	0	-3%
CC(c1ccccc1)n1cc(C(=O)NCCN2CCOCC2)nn1 (centres undefined)	0.1%	0%	1	22%
Cc1[nH]c2ccccc2c1N=Nc1cccc(C(=O)O)c1	5.8%	-79%	-9	-17%
Cc1c(Cl)cccc1N1CC(C(=O)Nc2nccs2)CC1=O (centres undefined)	-0.1%	9%	-5	-3%
COc1ccc(CN2CCC(n3nccc3NC(=O)C3CCCC3)CC2)c(OC)c1	6.5%	2%	/	7%
CCC(CC)C(=O)Nc1cccc(C(=O)N2CCOCC2)c1	-6.3%	-4%	-1	-20%
COC(=O)c1cc(=O)nc2scc(C)n12	-3.3%	0%	13	36%
CCOC(=O)C1Cc2cc3c(cc2C1=O)CC(C(=O)OCC)C3=O (centres undefined)	/	-21%	10	/
COc1ccc2oc(N)c(C=O)c(=O)c2c1	0.0%	-9%	-7	-7%
Cc1cc(C)c2c(=O)[nH]c(SCC(=O)c3ccc(C(C)C)cc3)nc2n1	4.1%	-3%	2	-18%
COc1ccc(OC)c(NC(=O)[C@@H]2CCCN2C(=O)c2cccs2)c1	-0.1%	-8%	5	8%
CCOC(=O)c1c(NC(=O)c2noc(C)c2[N+](=O)[O-])sc(C(C)=O)c1C	0.2%	-9%	7[21.1 µM]	-9%
Cc1ccc(S(=O)(=O)CCC(=O)Nc2sccc2C#N)cc1	0.7%	/	/	22%
CCOc1ccc(CNC(=O)C(C)n2nc(C)c3c(C)n(-c4ccccc4)nc3c2=O)cc1 (centres undefined)	3.8%	5%	/	7%
COc1ccccc1N(C)S(=O)(=O)c1ccc(C(=O)OC(C)C(=O)NCc2ccc3c(c2)OCO3)cc1 (centres undefined)	0.0%	1%	-5	-1%
C=CCN1C(=O)C(Cc2ccc(OC)cc2)SC1=Nc1ccc(C(=O)O)cc1 (centres undefined)	1.4%	-13%	-10	-4%
CCCCNCc1cc(Br)c(OCC(=O)NCc2ccccc2)c(OC)c1	-1.0%	-3%	-13	1%
O=C(NCc1ccc2c(c1)OCO2)C(=S)N1CCOCC1	-0.7%	-7%	2	16%
CCOC(=O)N1CCC(NC(=O)C2CCN(S(=O)(=O)c3c(C)noc3C)CC2)CC1	5.8%	-1%	1	6%
CN(CCc1ccccn1)Cc1ccc(Cl)cc1Cl	0.5%	-23%	6	-2%
CCN(CC)C(=O)CN(c1cc2c(cc1OC)oc1ccccc12)S(=O)(=O)c1ccccc1	-0.5%	0%	4	-13%
CCC1CCCCN1C(=O)c1cc2c(=O)n3cccc(C)c3nc2s1 (centres undefined)	0.1%	-3%	/	-2%
O=C(NCCN1C(=O)S/C(=C/c2cccnc2)C1=O)C1=NN(c2ccccc2)C(=O)CC1	-2.2%	/	/	-2%
Oc1ccc(/C=C/c2ccc3ccccc3n2)cc1	?	25%	3	18µM*

Three compounds drawn at random from the list so far:
SMILES	Rango complex inh	miR-21 FLuc	GLA inh pH 4.5	Rango release inh
Cc1ccc(S(=O)(=O)CCC(=O)Nc2sccc2C#N)cc1	0.7%	/	/	22%
CCC(CC)C(=O)Nc1cccc(C(=O)N2CCOCC2)c1	-6.3%	-4%	-1	-20%
CC(=O)Nc1ccccc1S(=O)(=O)CC1CC1(Cl)Cl (centres undefined)	-0.4%	-2%	/	0%

Six of these compounds in another layout:
Value order – Rango complex inh | miR-21 FLuc | GLA inh pH 4.5 | Rango release inh
CCN(CC)C(=O)CN(c1cc2c(cc1OC)oc1ccccc12)S(=O)(=O)c1ccccc1
 : -0.5% | 0% | 4 | -13%
CC(c1ccccc1)n1cc(C(=O)NCCN2CCOCC2)nn1 (centres undefined)
 : 0.1% | 0% | 1 | 22%
Cc1c(Cl)cccc1N1CC(C(=O)Nc2nccs2)CC1=O (centres undefined)
 : -0.1% | 9% | -5 | -3%
CCOC(=O)N1CCC(NC(=O)C2CCN(S(=O)(=O)c3c(C)noc3C)CC2)CC1
 : 5.8% | -1% | 1 | 6%
CCCN(CCC)c1nc(N(CCC)CCC)[nH]c(=O)n1
 : -5.1% | -1% | 1 | 1%
Cc1ccc(S(=O)(=O)CCC(=O)Nc2sccc2C#N)cc1
 : 0.7% | / | / | 22%

More records.
SMILES	Rango complex inh	miR-21 FLuc	GLA inh pH 4.5	Rango release inh
CCCCC(O)(C(NC=O)C(=O)OC)C(F)(F)F (centres undefined)	-0.8%	1%	1	-10%
NC(=O)C1(Nc2ccccc2Cl)CCCC1	1.4%	/	/	14%
NC(=O)c1cc(S(=O)(=O)Nc2ccccc2)cs1	2.3%	-2%	/	-20%
CCOC(=O)Cn1c2c(c(=N)c3c1CCC3)CCCC2	-2.6%	14%	2	6%
COc1cccc(-c2csc(N3CCN(C(=S)Nc4ccc(Cl)cc4)CC3)n2)c1	?	0%	-5	2%
O=C(/C=C/c1ccccc1)NCCSc1ccc(Cl)cc1	-1.7%	-2%	-1	-5%
CCCOc1ccc(C(CC(=O)O)NS(=O)(=O)c2ccc(NC(C)=O)cc2)cc1 (centres undefined)	-0.6%	-6%	1	?
COc1ccc(NC(=O)C2CCN(c3cc(C)nc(-c4ccccc4)n3)CC2)cc1	-0.4%	10%	-14	28%
COc1ccc(N(CC(=O)NCCSc2ccccn2)S(=O)(=O)c2ccccc2)cc1Cl	0.4%	8%	/	32%
Cc1ccc(CNC(=O)C2CCN(c3nn4c(=O)cc(C)nc4s3)CC2)cc1	0.7%	-10%	/	2%
CCCN(CCC)S(=O)(=O)c1ccc(C(=O)Nc2nc3c(s2)CCc2ccccc2-3)cc1	?	-9%	7	-12%
CS(=O)(=O)c1nc(-c2ccc(Br)cc2)cc(-c2ccccc2)c1C#N	12%	3%	3	5%
